Cruzain noTriton: inhibitors of Trypanosoma cruzi cruzain without detergent | P25779 | purified cruzain, Z-FR-AMC fluorescence, no detergent | Potency, µM, without a hit: max response, negative = inhibition, usual class: inhibitors | hit rate 2.3% among 200,000;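 also: plate controls were enzyme without inhibitor for no effect and buffer without enzyme for full effect; nearly all actives have a fitted effect of over 40% in size; top concentration of the series not given in the record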
Target sequence (P25779 123-467 limits assumed): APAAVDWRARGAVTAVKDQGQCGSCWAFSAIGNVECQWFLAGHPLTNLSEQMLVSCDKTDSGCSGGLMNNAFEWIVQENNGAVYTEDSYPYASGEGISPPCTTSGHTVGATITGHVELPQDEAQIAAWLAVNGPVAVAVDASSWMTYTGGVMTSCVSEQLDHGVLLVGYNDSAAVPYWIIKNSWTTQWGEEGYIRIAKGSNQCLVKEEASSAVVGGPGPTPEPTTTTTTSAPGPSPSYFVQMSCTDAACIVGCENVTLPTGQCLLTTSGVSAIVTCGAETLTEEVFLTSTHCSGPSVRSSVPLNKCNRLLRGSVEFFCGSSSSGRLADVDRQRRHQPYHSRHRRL
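Purified cruzain at 1.5 nM, pre-incubated 15 min with compound at room temperature in 100 mM sodium acetate pH 5.5, 5 mM DTT, 0.00005% Triton X-100. Reaction started with 2 uM Z-FR-AMC; AMC fluorescence increase over 60 s gives rate.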
RE007 growth inh: less growth of the S. pombe RE007 Vpr strain; S. pombe RE007 Vpr strain, BacTiter-Glo ATP luminescence, 24 h; control for the full effect not named in the record; Potency, µM (titrated, usually from 92.2 µM), for inactives: at the highest dose activity change, negative = less growth; hit rate 0.21% among 360,000; AID 651644; active = well fitted falling curve with a large enough effect; inconclusive = small, poorly fitted or top-dose-only effect; inactive = no such curve, though single readings can be large or run the other way;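 also: % is scaled to controls: 0 for no effect and ±100 for the full control effect; nearly all actives have a fitted effect of over 50% in size; the assay follows cell death caused by Vpr and the record does not say whether a fall means rescue or toxicity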
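Fission yeast strain RE007, carrying one chromosomally integrated HIV-1 vpr copy, was seeded at OD 0.01 in PMG+AL medium with 23 nL pinned compound. After 24 h at 30 °C and 99% humidity, viability was read by BacTiter-Glo luminescence.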
SARS PLP yeast: inhibitors of SARS-CoV papain-like protease in yeast. Potency, µM (doses to about 32.9 µM), without a hit: at the top dose activity, positive = growth rescue. hit rate 0.19% among 330,000. AID 485353. S. cerevisiae expressing SARS-CoV PLpro, growth rescue; control for the full effect not named in the record; active means well fitted rising curve with a large enough effect; inconclusive means small, poorly fitted or top-dose-only effect; inactive means no such curve, though single readings can be large or run the other way; also: 0% is about no effect; nearly all actives have a fitted effect of over 55% in size; growth read by luminescence after 48 h
MARV entry inh: blocks Marburg virus binding to or entry into cells | Marburg virus pseudotyped entry inhibition, cell reporter; control for the full effect not named in the record; about a third of the inactives were read at about 46 µM | Potency, µM (doses to about 37.8 µM), for the others: at the highest dose activity change, negative = inhibition, most hits filed as inhibitors | hit rate 1.8% among 300,000; active = well fitted inhibition curve with a large enough effect; inconclusive = small, poorly fitted or top-dose-only effect, or effect the other way; inactive = flat fitted curve, though single readings scatter; tested in HEK293 cells; about a fifth of its hits are not listed in these tables; also: % is scaled to controls: 0 for no effect and ±100 for the full control effect; luciferase read-out
Cruzain inh Det: inhibitors of Trypanosoma cruzi cruzain with detergent. P25779. purified cruzain, Z-FR-AMC fluorescence, 0.01% Triton. Potency, µM, for the others: max response, negative = inhibition, hits mostly inhibitors. hit rate 0.43% among 200,000;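 also: plate controls were neutral wells for no effect and buffer without enzyme for full effect; nearly all actives have a fitted effect of over 40% in size; top concentration of the series not given in the record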
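Steps: dispense cruzain (1.5 nM final) in acetate buffer pH 5.5 with DTT and 0.01% Triton X-100; pin-transfer compounds; incubate 15 min RT; add Z-FR-AMC (2 uM final); read fluorescence every 30 s, using the 60 s intensity change.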
NS1 function inh: influenza NS1 inhibition; Potency, µM (titrated, usually from 46.1 µM), without a hit: at the top dose activity, positive = more growth; hit rate 0.4% among 270,000; AID 2326; S. cerevisiae slowed by influenza A NS1, growth recovery by OD600; active means well fitted rising curve with a large enough effect; inconclusive means small, poorly fitted or top-dose-only effect; inactive means no such curve, though single readings can be large or run the other way; also: nearly all actives have a fitted effect of over 50% in size
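S. cerevisiae expressing influenza A NS1, grown in glucose, washed, then diluted 1:100 into pH 6.0 -URA galactose medium with 23 nl compound. Growth recovery read as OD600; NS1-free strain serves as control.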
StopGo reporter: FMDV 2A StopGo reporter, luciferase signal; Potency, µM (titrated, usually from 57.9 µM), inactives show top-dose signal change, negative = less light; hit rate 1.2% among 410,000; human cells with a luciferase reporter of 2A StopGo recoding; control for the full effect not named in the record; AID 1159524; active = well fitted falling curve with a large enough effect; inconclusive = small, poorly fitted or top-dose-only effect; inactive = no such curve, though single readings can be large or run the other way; tested in HEK293T cells; also: % is scaled to controls: 0 for no effect and ±100 for the full control effect; nearly all actives have a fitted effect of over 45% in size; luciferase light after 4 h
Lassa entry inh: inhibitors of Lassa virus binding or cell entry. Lassa virus pseudotype entry inhibition, cell reporter; control for the full effect not named in the record. Potency, µM (series often up to 37.9 µM), inactives show at the top dose activity change, negative = inhibition, actives largely listed as inhibitors. hit rate 1.2% among 300,000. AID 540256; active means well fitted inhibition curve with a large enough effect; inconclusive means small, poorly fitted or top-dose-only effect, or effect the other way; inactive means flat fitted curve, though single readings scatter; tested in HEK293 cells; also: % is scaled to controls: 0 for no effect and ±100 for the full control effect; nearly all actives have a fitted effect of over 50% in size; luciferase read-out
Numbers without * were called inactive; ? = inconclusive; · = not tested or not shown; [ ] = remark or other dose. Unless noted, calls follow the shape of the dose curve; as a rule, active = well fitted curve in the direction sought with a large enough effect; inconclusive = small, poorly fitted or top-dose-only effect, or another doubt; inactive = no such curve, though single readings can be large; an effect the other way counts as inactive or inconclusive. Potency is read from the fitted curve at half-maximal effect. Compounds were not picked by outcome; about 4.7% have a hit in one of these screens.

SMILES	Cruzain noTriton	RE007 growth inh	SARS PLP yeast	MARV entry inh	Cruzain inh Det	NS1 function inh	StopGo reporter	Lassa entry inh
O=C(c1ccccc1)N1CCCCC(Sc2nnc3ccccn23)C1=O (stereo not given)	-5%	8%	3%	0%	1.3%	-2%	-18%	8%
Cc1c(OC(C(=O)O)c2ccccc2)ccc2c3c(c(=O)oc12)CCC3 (stereo not given)	·	-2%	-2%	·	·	3%	-7%	·
Cc1cc(N2CCCC2)c(C)cc1C=O	-11%	-11%	5%	3%	-2.5%	-45%	8%	1%
CCn1ccc(C(=O)Nc2ccc3c(c2)CCC3)n1	·	-16%	-5%	·	·	-29%	-2%	·
O=C(COc1coc(CN2CCCc3ccccc32)cc1=O)Nc1ccc([N+](=O)[O-])cc1	·	-11%	-3%	-7%[46.1 µM]	·	·	-12%	22%
O=S(=O)(CCc1nc2ccccc2o1)c1ccc(Cl)cc1	-1%	2%	0%	-2%	-4.6%	-1%	-16%	-14%
NC(=O)CC(NC(=O)Cc1ccc(Br)cc1)c1ccc(NCCc2ccccc2F)c([N+](=O)[O-])c1 (stereo not given)	·	7%	-2%	·	·	4%	-3%	·
CCn1c(=O)c2cc(C(=O)NCc3ccc(F)cc3Cl)sc2c2ccccc21	1%	·	·	26%[46.1 µM]	0.5%	·	-27%	-11%[46.1 µM]
Cc1ccc(S(=O)(=O)NCC2CCC(C(=O)N3CCC4(CC3)OCCO4)CC2)cc1 (stereo not given)	26%	18%	3%	1%	2.6%	5%	-17%	-12%
CCOc1ccc(NC(=O)CN(C)C(=O)c2cc(C)on2)cc1OCC	·	-6%	1%	1%	·	·	16%	9%
O=C(Nc1cnc2sccn2c1=O)c1ccccc1Cl	-3%	-10%	1%	-6%	-4.1%	-6%	41%[activator]	-17%
CC(=O)c1c(C)n(CC2CCCO2)c2ccc(O)cc12 (stereo not given)	-23%	2%	5%	14%	-0.6%	?	·	5%
CC(=O)N1CCOc2cc(S(=O)(=O)N(C)Cc3ccccc3)c(Cl)cc21	5%	·	·	·	-1.5%	·	-13%	-11%[46.1 µM]
CCc1nnc(NS(=O)(=O)c2ccc(Nc3ccc([N+](=O)[O-])c4nonc34)cc2)s1	·	-24%	5%	?	·	5%	-12%	-1%
CCc1c(C)nc2ncnn2c1N1CCC(C(=O)NCc2cccc(OC)c2)CC1	7%	11%	-1%	?	3.3%	-9%	?	-1%
C=CCNc1nnc(Cc2ccc(C(C)C)cc2)c(=O)[nH]1	·	6%	-1%	·	·	5%	-19%	·
CCC(c1nnnn1Cc1ccco1)N1CCN(C(=O)c2ccco2)CC1 (stereo not given)	-2%	3%	-1%	-3%[46.1 µM]	1.9%	?	24%	-13%
Cc1ccc(-c2cc(C(=O)Nc3c(C#N)cnn3C)no2)cc1	-11%	-13%	-5%	-2%	1.2%	-6%	38%[activator]	29%
CCc1nc2c(n1O)CCc1nonc1-2	-5%	-10%	0%	14%	-0.1%	-15%	-12%	1%
CCOc1cc(/C=C2/C(=N)N3C(=NC2=O)SN=C3S(=O)(=O)C(C)C)ccc1OC(=O)c1ccco1	·	-7%	?	·	·	-5%	-18%	·
CCN(CC)c1ccc(NC(=O)c2ccco2)c(C)c1	-2%	-14%	?	14%	0.5%	11%	11%	?
CN(C)c1nc(C=C(C#N)C#N)c(Cl)n1-c1ccc(F)cc1	·	4%	-8%	?	·	·	14µM*	?
Cc1ccc2nc(-c3ccc(NC(=S)NC4CC(C)(C)NC(C)(C)C4)cc3)sc2c1	·	-18%	-10%	?	·	·	63%[activator]	?
COc1ccc(NC(=O)c2ccco2)cc1NC(=O)c1cccc(F)c1	·	2%	-21%	-25%[46.1 µM]	·	-22%	17%	-13%
COc1ccccc1CNC(=O)C1CCC1	6%	5%	-1%	0%	0.2%	-2%	12%	7%
SMILES	Cruzain noTriton	RE007 growth inh	SARS PLP yeast	MARV entry inh	Cruzain inh Det	NS1 function inh	StopGo reporter	Lassa entry inh
CC(C)(C)N1CC(C(=O)Nc2ccc(S(=O)(=O)N3CCCCC3)cc2)CC1=O (stereo not given)	·	11%	6%	4%[46.1 µM]	·	·	-19%	1%
Cc1ccc(NC(=O)COc2coc(CN3CCN(c4ccccc4)CC3)cc2=O)cc1	·	-23%	8%	?	·	·	?	21%
NS(=O)(=O)c1ccc(CCNc2ccccc2[N+](=O)[O-])cc1	·	6%	0%	?	·	1%	24%	10%[46.1 µM]
CN(C(=O)c1ccc2c(=O)n3c(nc2c1)CCCCC3)c1ccccc1F	·	-6%	-4%	·	·	0%	-4%	·
CCOc1ccccc1N1CCN(Cc2cccc(OC)c2O)CC1	-5%	-4%	-7%	?	1.8%	10%	?	-6%
O=C1N(Cc2cccc(Cl)c2)C[C@@H]2C[C@@H](c3cccc4ncccc34)N3CCC[C@@]123	·	-16%	-1%	?	·	-11%	-11%	?
CCCCS(=O)Cc1ccccc1 (stereo not given)	9%	-6%	5%	-16%	3.7%	3%	5%	10%
CCN1CCN(c2cc(C)c3cc(NC(=S)NCCCOC)ccc3n2)CC1	·	2%	2%	·	·	-6%	-7%	·
CCOc1cc(NC(=O)c2ccccn2)c(OCC)cc1NC(=O)c1ccc(Cl)cc1	·	7%	-1%	·	·	1%	-23%	·
Cc1ccc(-c2nn(C)c(=O)c3ccccc23)cc1CNC(=O)CN1CCOCC1	7%	-10%	-3%	3%	3.9%	-5%	?	-9%
CCCN1C(=O)/C(=N\OCC(=O)NC23CC4CC(CC(C4)C2)C3)c2ccccc21	-5%	·	10%	-23%	-6.8%	-9%	0%	?
Cc1ccc(C)c(C(C)NC(=O)Cc2cccs2)c1 (stereo not given)	·	2%	2%	0%	·	0%	-5%	2%
O=C(Nc1ccc(N2CCN(C(=O)c3cccs3)CC2)cc1)c1cccc(F)c1	·	-24%	-5%	?	·	-4%	1%	-17%[46.1 µM]
Cc1cc(C)cc(N(CC(=O)NC2CCCCC2)C(=O)CNC(=O)c2ccco2)c1	·	20%	-4%	?	·	-10%	-1%	-8%
COc1ccccc1N(CN1CCCC1=O)C(=O)c1c(F)cccc1Cl	1%	0%	9%	-20%	3.4%	3%	1%	0%
COc1ccc(C2CC(=O)N(CC(=O)Nc3ccc(C(F)(F)F)cc3)c3ccccc3S2)cc1 (stereo not given)	11%	·	·	?	-0.7%	·	-24%	·
CCCc1cc(=O)[nH]c(Nc2cc(Cl)cc(Cl)c2)n1	-27%	·	·	?	-3.8%	·	?	?
CCC(=O)Nc1ccc(Oc2ccc3c(c2)C(=O)NC3=O)cc1	-14%	-9%	-7%	6%	4.1%	-2%[9.22 µM]	·	0%
Cc1cc(C)c(C(=O)COC(=O)Cn2c(C)csc2=O)cc1C	·	-7%	6%	-1%	·	1%	36%[activator]	3%
CN(C)c1nc(Nc2ccc(Cl)cc2)nc(OCC#N)n1	6%	-15%	-2%	?	?	-26%	?	-3%
Cc1nc2cc(-c3cccs3)[nH]n2c(=O)c1C	·	-18%	·	19%	·	·	22%	27%
CC1=CC(C)(C)N(C(=O)CNC2CCCCC2)c2cc(C)ccc21	·	-13%	1%	?	·	-3%	-20%	?
Cc1ccc(-n2c(-c3ccco3)n[nH]c2=S)cc1	·	7%	0%	?	·	0%	-2%	-1%[46.1 µM]
Nc1c(Cl)ncnc1NCc1cccnc1	·	1%	0%	-6%[46.1 µM]	·	4%	-23%	8%[46.1 µM]
O=C(NC(=S)NCCCN1CCOCC1)c1ccc([N+](=O)[O-])cc1	-5%	-25%	9%	?	-7.2%	4%	-6%	4%
CCN(CC)S(=O)(=O)c1ccc(NC(=O)COC(=O)CN2C(=O)c3ccccc3C2=O)cc1	-2%	20%	-3%	2%	0.7%	-55%	13%	-3%

A run of entries taken from the entries so far, for reference:
SMILES	Cruzain noTriton	RE007 growth inh	SARS PLP yeast	MARV entry inh	Cruzain inh Det	NS1 function inh	StopGo reporter	Lassa entry inh
CC(C)(C)N1CC(C(=O)Nc2ccc(S(=O)(=O)N3CCCCC3)cc2)CC1=O (stereo not given)	·	11%	6%	4%[46.1 µM]	·	·	-19%	1%
Cc1ccc(NC(=O)COc2coc(CN3CCN(c4ccccc4)CC3)cc2=O)cc1	·	-23%	8%	?	·	·	?	21%
NS(=O)(=O)c1ccc(CCNc2ccccc2[N+](=O)[O-])cc1	·	6%	0%	?	·	1%	24%	10%[46.1 µM]
CN(C(=O)c1ccc2c(=O)n3c(nc2c1)CCCCC3)c1ccccc1F	·	-6%	-4%	·	·	0%	-4%	·
CCOc1ccccc1N1CCN(Cc2cccc(OC)c2O)CC1	-5%	-4%	-7%	?	1.8%	10%	?	-6%

Reformatted: results already given
Sequence of screens – Cruzain noTriton	RE007 growth inh	SARS PLP yeast	MARV entry inh	Cruzain inh Det	NS1 function inh	StopGo reporter	Lassa entry inh
> Cc1nc2cc(-c3cccs3)[nH]n2c(=O)c1C
→ ·	-18%	·	19%	·	·	22%	27%
> CC1=CC(C)(C)N(C(=O)CNC2CCCCC2)c2cc(C)ccc21
→ ·	-13%	1%	?	·	-3%	-20%	?
